Marburg entry inh: qHTS for inhibitors of binding or entry into cells for Marburg Virus | Marburg virus pseudotyped entry inhibition, cell reporter; control for the full effect not named in the record; about a third of the inactives were read at about 46 µM | Potency, µM (doses to about 37.8 µM), inactives show at the highest dose activity change, negative = inhibition, most hits filed as inhibitors | hit rate 1.8% among 300,000 | AID 540276, 2011; active = well fitted inhibition curve with a large enough effect; inconclusive = small, poorly fitted or top-dose-only effect, or effect the other way; inactive = flat fitted curve, though single readings scatter; tested in HEK293 cells; about a fifth of its hits are not listed in these tables; note: % is set by controls: 0 for no effect and ±100 for the full control effect; luciferase read-out
SARS PLP yeast: qHTS of Yeast-based Assay for SARS-CoV PLP. Potency, µM (top dose mostly 32.9 µM), without a hit: at the highest dose activity, positive = growth rescue. hit rate 0.19% among 330,000. S. cerevisiae expressing SARS-CoV PLpro, growth rescue; control for the full effect not named in the record; active means well fitted rising curve with a large enough effect; inconclusive means small, poorly fitted or top-dose-only effect; inactive means no such curve, though single readings can be large or run the other way; note: 0% is about no effect; nearly all actives have a fitted effect of over 55% in size; growth read by luminescence after 48 h
Cruzain inh Det: qHTS Assay for Promiscuous and Specific Inhibitors of Cruzain (with detergent); purified cruzain, Z-FR-AMC fluorescence, 0.01% Triton; hit rate 0.43% among 200,000; Potency, µM, for the others: max response, negative = inhibition, hits mostly inhibitors;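 note: plate controls were neutral wells for no effect and buffer without enzyme for full effect; nearly all actives have a fitted effect of over 40% in size; top concentration of the series not given in the record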
Target sequence (P25779 123-467 limits assumed): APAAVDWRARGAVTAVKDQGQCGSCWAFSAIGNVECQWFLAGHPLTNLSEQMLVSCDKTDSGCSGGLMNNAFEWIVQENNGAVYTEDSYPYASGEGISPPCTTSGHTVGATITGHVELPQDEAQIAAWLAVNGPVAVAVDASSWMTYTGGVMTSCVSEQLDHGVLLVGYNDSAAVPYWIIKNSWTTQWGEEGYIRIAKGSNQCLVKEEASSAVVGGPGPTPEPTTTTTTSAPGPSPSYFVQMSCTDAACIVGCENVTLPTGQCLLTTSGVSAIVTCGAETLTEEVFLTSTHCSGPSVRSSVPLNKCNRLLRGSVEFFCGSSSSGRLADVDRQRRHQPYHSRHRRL
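Detergent-containing arm of a paired screen for aggregation-based inhibition: 0.01% Triton X-100 present. Cruzain at 1.5 nM cleaved 2 uM Z-FR-AMC at pH 5.5 with 5 mM DTT; AMC fluorescence gain over 60 s measured activity.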
Lassa entry inh: qHTS for Inhibitors of binding or entry into cells for Lassa Virus; hit rate 1.2% among 300,000; Potency, µM (titrated, usually from 37.9 µM), for the others: at the highest dose activity change, negative = inhibition, usual class: inhibitors; Lassa virus pseudotype entry inhibition, cell reporter; control for the full effect not named in the record; active means well fitted inhibition curve with a large enough effect; inconclusive means small, poorly fitted or top-dose-only effect, or effect the other way; inactive means flat fitted curve, though single readings scatter; tested in HEK293 cells; note: % is set by controls: 0 for no effect and ±100 for the full control effect; nearly all actives have a fitted effect of over 50% in size; luciferase read-out
RE007 growth inh: qHTS Assay for Inhibitors of the HIV-1 protein Vpr | hit rate 0.21% among 360,000 | AID 651644, 2012 | S. pombe RE007 Vpr strain, BacTiter-Glo ATP luminescence, 24 h; control for the full effect not named in the record | Potency, µM (doses to about 92.2 µM), for the others: at the top dose activity change, negative = less growth; active = well fitted falling curve with a large enough effect; inconclusive = small, poorly fitted or top-dose-only effect; inactive = no such curve, though single readings can be large or run the other way;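 note: % is set by controls: 0 for no effect and ±100 for the full control effect; nearly all actives have a fitted effect of over 50% in size; the assay follows cell death caused by Vpr and the record does not say whether a fall means rescue or toxicity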
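Fission yeast RE007 carrying one integrated HIV-1 vpr copy, seeded at OD 0.01 in PMG+AL medium with 23 nL pinned compound. Grown 24 h at 30 degrees; viability read by BacTiter-Glo luminescence after 5 min.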
StopGo reporter: High Throughput Screening for Foot and Mouth Disease Virus Antivirals; human cells with a luciferase reporter of 2A StopGo recoding; control for the full effect not named in the record; Potency, µM (highest dose often 57.9 µM), for inactives: at the highest dose signal change, negative = less light; hit rate 1.2% among 410,000; AID 1159524, 2015; active = well fitted falling curve with a large enough effect; inconclusive = small, poorly fitted or top-dose-only effect; inactive = no such curve, though single readings can be large or run the other way; tested in HEK293T cells; note: % is set by controls: 0 for no effect and ±100 for the full control effect; nearly all actives have a fitted effect of over 45% in size; luciferase light after 4 h
NS1 inh: qHTS Assay for Inhibitors of Influenza NS1 Protein Function; hit rate 0.4% among 270,000; AID 2326, 2010; S. cerevisiae slowed by influenza A NS1, growth recovery by OD600; Potency, µM (top dose mostly 46.1 µM), for inactives: top-dose activity, positive = more growth; active means well fitted rising curve with a large enough effect; inconclusive means small, poorly fitted or top-dose-only effect; inactive means no such curve, though single readings can be large or run the other way; note: nearly all actives have a fitted effect of over 50% in size
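Compounds were scored for reversing the slow growth caused by influenza A NS1 in S. cerevisiae, measured by optical density at 600 nm. Assay medium contained 2% galactose at pH 6.0; NS1-free yeast of the same strain were the positive control.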
Cruzain noTriton: qHTS Assay for Promiscuous and Specific Inhibitors of Cruzain (without detergent); Cruzipain (Trypanosoma cruzi), P25779; purified cruzain, Z-FR-AMC fluorescence, no detergent; Potency, µM, for inactives: max response, negative = inhibition, most hits filed as inhibitors; hit rate 2.3% among 200,000;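 note: plate controls were enzyme without inhibitor for no effect and buffer without enzyme for full effect; nearly all actives have a fitted effect of over 40% in size; top concentration of the series not given in the record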
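Detergent-free condition (0.00005% Triton X-100) in acetate buffer pH 5.5 with DTT. 1.5 nM enzyme and compound were pre-mixed 15 min, then 2 uM Z-FR-AMC substrate added; reaction progress from fluorescence change between first and third reads (60 s).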
* = called active by the depositor; ? = inconclusive; . = no result given; & = joins results of further samples; [ ] = remark or other dose. Unless noted, calls come from the whole dose curve; as a rule, active = well fitted curve in the direction sought with a large enough effect; inconclusive = small, poorly fitted or top-dose-only effect, or another doubt; inactive = no such curve, though single readings can be large; an effect the other way counts as inactive or inconclusive. Potency is the fitted concentration of half-maximal effect.

Start of the data: the first 2 compounds, ahead of the listing:
SMILES	Marburg entry inh	SARS PLP yeast	Cruzain inh Det	Lassa entry inh	RE007 growth inh	StopGo reporter	NS1 inh	Cruzain noTriton
CCCCn1c(=S)[nH]c2ncccc2c1=O	?	-1%	0.1%	7%	7%	-21%	-4%	-6%
CCOc1ccccc1NS(=O)(=O)c1c(C)noc1C	-29%	1%	-2.0%	11%	-6%	-2%	-6%	-3%

Results, from the start:
SMILES	Marburg entry inh	SARS PLP yeast	Cruzain inh Det	Lassa entry inh	RE007 growth inh	StopGo reporter	NS1 inh	Cruzain noTriton
CCCCn1c(=S)[nH]c2ncccc2c1=O	?	-1%	0.1%	7%	7%	-21%	-4%	-6%
CCOc1ccccc1NS(=O)(=O)c1c(C)noc1C	-29%	1%	-2.0%	11%	-6%	-2%	-6%	-3%
CCCOc1cccc(C(=O)Nc2cc(-c3nc4ccccc4[nH]3)ccc2C)c1	.	.	-4.1%	?	.	?	.	0%
O=C(c1cccc([N+](=O)[O-])c1)N1CCN(Cc2ccccc2)CC1	.	2%	.	.	-6%	-19%	1%	.
CC1(C)CC(=O)C2=C(C1)N(c1cccnc1)C(N)=C(C#N)C2c1cccs1 (stereo unspecified)	11%	25%	-5.9%	18%	15%	0%	17%	2%
COc1ccc(S(=O)(=O)NC(C)C(=O)NCCN2CCOCC2)cc1Cl (stereo unspecified)	?	0%	.	9%	-12%	0%	6%	.
COc1ccccc1C(=O)NC(=O)COC(=O)c1ccco1	12%[46.1 µM]	2%	.	31%	0%	-1%	.	.
O=C(NCc1ccc(OC(F)(F)F)cc1)C12CN(Cc3ccccc3)CC1C(c1cccc([N+](=O)[O-])c1)=NO2 (stereo unspecified)	-5%	25%	1.0%	.	-27%	-13%	?	20µM*
COc1ccccc1-c1noc(-c2ccc(N3CCN(C)CC3)c([N+](=O)[O-])c2)n1	4%[46.1 µM]	.	-3.1%	15%[46.1 µM]	.	5%	.	-21%
COc1ccc(CCNC(=O)C2CCN(C(=O)NC3CCCCC3)CC2)cc1	-1%	23%	-3.4%	-1%	-15%	-15%	-4%	1%
CC(C)CNC(=O)c1cc(-c2ccc(Br)cc2)on1	?	4%	5.4%	?	5%	69%[activator]	-2%	?
CC(C)(C)n1nnnc1CN(Cc1cccnc1)Cc1ccccc1Cl	-5%	1%	2.9%	-15%	-5%	-15%	-13%	3%
O=C(NCc1ccc(S(=O)(=O)NC2CCCCC2)s1)c1ccccc1	13%[14.2 µM]	-1%	.	8%	6%	21%	4%	.
Cn1cc(S(=O)(=O)c2ccccc2)c(=O)c2cc(Cl)ccc21	.	2%	.	.	7%	-1%	10%	.
CCc1c(C)nc2nc(NC(C)=O)[nH]n2c1=O	20%	7%	-0.3%	-1%	7%	12%	2%	7%
Cc1ccc(S(=O)(=O)N2CCN(CC(=O)Nc3ccccc3C(=O)NC3CC3)CC2)cc1	?	2%	.	-2%	-12%	-15%	.	.
O=C(c1ccco1)N1N=C(c2ccccc2)CC1c1ccc2nccnc2c1 (stereo unspecified)	10%	0%	.	-13%	-7%	-5%	4%	.
Cc1cc(NC(=O)CCC(=O)N(CCC(C)C)C(C(=O)NCC2CCCO2)c2ccccc2C)no1 (stereo unspecified)	-28%[46.1 µM]	-8%	.	8%	-1%	-8%	8%	.
Cc1cccc(CN2C(=O)N/C(=C/c3ccc(C)s3)C2=O)c1	?	-4%	1.9%	3.2µM*	3%	2%	-6%	-2%
COc1ccc(N)c(C)c1	.	.	-1.2%	.	-10%	-21%	.	-2%
CC1CCCCN1CCNC(=O)c1ccc2c(c1)N(Cc1cccc(Cl)c1)C(=O)c1ccccc1S2=O (stereo unspecified)	?	2%	.	?	2%	0%	-3%	.
COc1ccc(C(=O)NCCNc2ncc(C(F)(F)F)cc2Cl)cc1[N+](=O)[O-]	-21%	1%	.	4%	7%	-29%	0%	.
COC(=O)c1cc(OC)c(OC)cc1NCC(=O)Nc1cccc(C(F)(F)F)c1	10µM*	-16%	-6.5%	-11%	-11%	?	13%	?
O=C(CCSc1ccccc1)Nc1nc2c(s1)COc1ccccc1-2	.	-7%	-6.9%	.	14%	-19%	3%	32µM*
Cc1ccc(-c2nnn(C(C)C(=O)N3c4ccccc4CCc4ccccc43)n2)cc1 (stereo unspecified)	?	-20%	-4.9%	?	-6%	-22%	28%	-21%
CC(C)(C)OC(=O)N1CCNc2ccccc2C1	2%[46.1 µM]	-1%	2.4%	?	7%	14%	7%	11%
Cn1c(CNC(=O)c2ccccc2)nnc1SCC(=O)N1CCN(c2ccccc2)CC1	4%	10%	1.2%	1%	-5%	9%	4%	0%
O=C(COC(=O)c1cc(Cl)ccc1O)NCCNC(=O)COC(=O)c1cc(Cl)ccc1O	-13%[46.1 µM]	2%	.	.	14%	-1%	-8%	.
CCCc1nnc(NC(=O)CCC(=O)Nc2ccc(Br)cc2)s1	.	0%	.	.	5%	-18%	-7%	.
O=C(CC(NCc1ccccn1)C(=O)O)Nc1ccccc1Cl (stereo unspecified)	11%[46.1 µM]	1%	.	15%[46.1 µM]	5%	7%	.	.
O=C(CNCC1CCCO1)Nc1ccccc1N1CCOCC1 (stereo unspecified)	1%	2%	5.5%	1%	-14%	-8%	0%	8%
CC(Oc1ccc(Br)cc1)C(=O)N1CCc2ccccc21 (stereo unspecified)	-36%	3%	-2.5%	2%	2%	-21%	5%	-15%
Cc1nn(-c2ccccc2)c(Cl)c1/C=C/C(=O)c1ccccc1	-13%	-16%	-3.4%	-26%	-26%	-8%	-10%	1%
Cc1ccc2c(c1)NC(=O)C(CC(=O)NCCCN1CCN(c3cc(Cl)ccc3C)CC1)O2 (stereo unspecified)	-3%&-3%	?	-8.3%	-22%	-11%	?	3%	-1%
CC(NC(=O)c1ccccc1)C(=O)NC1CCCc2ccccc21 (stereo unspecified)	?	-1%	.	13%	-6%	-11%	.	.
CNC(=O)C1CC(=O)N(c2ccc(C)cc2)C1 (stereo unspecified)	6%	4%	5.0%	-14%	13%	8%	5%	-5%
COc1cc(/C=C2\C(=N)N3N=CSC3=NC2=O)ccc1OS(=O)(=O)c1ccccc1	?	-1%	.	20%[46.1 µM]	-23%	-7%	?	.
CN(CC(=O)N1CCN(c2cccc(Cl)c2)CC1)S(=O)(=O)c1cnc[nH]1	5%	20%	0.7%	-7%	-21%	-24%	-2%	-4%
COc1ccccc1NC(=O)C1C2CCCCC21 (stereo unspecified)	-3%	5%	3.2%	0%	?	-12%	-9%	-1%
CC1(C)NC(=O)N(c2ccccc2Cl)C1(C)NO (stereo unspecified)	13%	-2%	4.4%	8%	19%	40%[activator]	-2%	0%
Cc1cccc(-n2ncc3c(N4CCCC(C)C4)ncnc32)c1 (stereo unspecified)	.	.	-2.0%	-22%[46.1 µM]	.	25µM*	.	11%
Cc1ccc(Oc2ccc(NC(=O)CCC(=O)OCC(=O)c3cccs3)cc2)cc1C	?	-2%	-4.9%	5%	24%	29%	-32%	-7%
COc1cc(C=O)ccc1OCCSc1ccc(C)cc1	2%	-9%	-0.6%	?	-13%	55%[activator]	-12%	0%
Cc1ccc(OCCC(=O)OCC(=O)NCCc2ccccc2)cc1	10%[46.1 µM]	-3%	.	-21%	-12%	-17%	-8%	.
Cn1c(=O)c2c(-c3ccc(Br)cc3)n(Cc3ccc(F)cc3)cc2n(C)c1=O	13%[46.1 µM]	.	-7.2%	-8%[46.1 µM]	.	?	.	?
CCc1cc(OCCCCNCc2ccccc2)ccc1Cl	-24%	-19%	-1.6%	-9%	19%	?	-31%	10%
COC(=O)c1ccccc1NC(=O)CSc1nc(C)cc(C)n1	5%[46.1 µM]	-1%	.	-5%[46.1 µM]	5%	5%	.	.
O=C(NCCO)/C(=C/c1ccc2c(c1)OCO2)NC(=O)c1ccc(Br)cc1	-6%[46.1 µM]	0%	.	-5%	6%	-3%	-7%	.
CCCCC(=O)OCC(=O)c1[nH]c(C)c(C(=O)OCC)c1C	5%	8%	0.5%	4%	1%	24%	0%	-15%
Cc1ccccc1S(=O)(=O)Cc1ccc(C(=O)N2CCN(c3ccccc3F)CC2)o1	?	-5%	.	?	1%	?	-5%	.
O=c1c(S(=O)(=O)c2ccc(Cl)cc2)cn(Cc2cccc(F)c2)c2ccc(F)cc12	?	13%	-1.8%	0%	-2%	-17%	-1%	-16%
Cc1ccc(C(=O)Nc2c(C(=O)NCc3ccco3)cnn2-c2ccccc2)cc1	3%	11%	0.2%	-18%	-8%	.	-13%	-11%
COCCN1C(=O)c2ccccc2C(C(=O)NCc2ccco2)C1c1c[nH]c2ccccc12 (stereo unspecified)	-10%	-2%	2.2%	1%	-7%	-8%	-11%	19%
CCN(Cc1ccc(C#CCCO)cc1)CC1CCCN(CCc2cccc(F)c2)C1 (stereo unspecified)	.	5%	.	.	-5%	-10%	2%	.
Cc1cc(C)cc(NC(=O)c2sc3nc(C)cc(C)c3c2N)c1	.	-7%	.	.	-10%	64%[activator]	-8%	.
CNC(=O)c1c(NC(=O)c2ccc(S(=O)(=O)N3CCC(C)CC3)cc2)sc2c1CCC2	.	.	-1.4%	4%[46.1 µM]	.	-11%	.	14%
CCc1cc2c(=O)n(CC(=O)NCCc3ccc(OC)c(OC)c3)cnc2s1	-11%[46.1 µM]	-2%	.	-8%[46.1 µM]	-7%	3%	2%	.
CN(C(=O)C1CCC(=O)N(CCc2ccc(Cl)cc2)C1)C1CCOCC1 (stereo unspecified)	8%	-3%	.	-6%	-10%	-16%	3%	.
S=C(N/N=C/c1ccc2ncccc2c1)Nc1cccnc1	.	0%	.	.	3%	14µM*	4%	.
COc1ccc(-n2nc3c(c2NC(=O)c2cc(Br)ccc2Cl)CS(=O)C3)cc1 (stereo unspecified)	.	-2%	-0.6%	.	1%	-8%	-3%	-7%
